# Mtb bLac sens – beta-lactam sensitization of Mtb H37Rv. M. tuberculosis H37Rv growth with meropenem, percent inhibition; hits of this screen are not shown here. hit rate 0.27% among 330,000. inhibition, % at 25 µM;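 active means about 74% or more and at least 40 points above the plate without the antibiotic, then above 30% in a dose series; inconclusive means first-round hits that could not be retested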;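 further: growth measured after seven days incubation then overnight dye step; 0% = bacteria only wells and 100% = bacteria with antibiotic; twin plates without the antibiotic show which effects depend on it; some results filed as inactive read as strong as hits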
# The depositor's hits bear a star; ? = inconclusive.
item	SMILES	Mtb bLac sens
1	COc1ccc(OCCCC(=O)Nc2cc(S(=O)(=O)N3CCCCC3)ccc2OC)cc1	5
2	COc1ccc(S(=O)(=O)N(C)C[C@H]2Oc3c(NC(=O)Nc4ccc5c(c4)OCO5)cccc3C(=O)N([C@H](C)CO)C[C@@H]2C)cc1	14
3	CC(=O)N1CCN(C(=O)CNC(=O)c2cccs2)CC1	1
4	Cc1ccc(S(=O)(=O)Nc2cc(S(=O)(=O)N3CCOCC3)ccc2NCC2CCCO2)cc1 (stereo not given)	-11
5	O=C(O)c1ccccc1C(=O)N1CCN(S(=O)(=O)c2cccc(C(F)(F)F)c2)CC1	-1
6	Cc1cccc(OCCC(=O)Nc2ccc(N3CCOCC3)cc2N2CCOCC2)c1	-10
7	O=C(COC(=O)c1ccc([N+](=O)[O-])o1)NCc1ccccc1	72
8	Cc1ccc(NC(=O)c2c([N+](=O)[O-])cnn2C)cc1C	-3
9	Cc1ccc(S(=O)(=O)NCCC(=O)NCCCSc2ccccc2)cc1	3
10	O=[N+]([O-])c1cc(Br)c2nsnc2c1N1CCOCC1	6
11	COc1ccccc1C(=O)NCCC(=O)N1CCN(S(=O)(=O)c2cccc(Cl)c2)CC1	-4
12	COc1ccc(OC)c(CN2CCN(C(=O)c3ccc(S(=O)(=O)Nc4ccccc4F)cc3)CC2)c1	-8
13	COc1cc(Cl)c(C)cc1NC(=O)c1ccccc1-n1cnnn1	-5
14	O=C(Nc1cc(S(=O)(=O)N2CCOCC2)ccc1N1CCOCC1)c1c(F)cccc1Cl	-4
15	CCc1cc(C(=O)NCC(c2ccco2)N2CCCCC2)sc1C (stereo not given)	-1
16	C[C@]12CCC[C@H](O1)[C@H]([C@@H](O)c1ccccc1)O2	-2
17	O=C(O)CNC(=O)C(CS)Cc1ccccc1 (stereo not given)	-3
18	COc1ccc(Cn2c(=O)[nH]c3cc(C(=O)N4CCN(c5ccc(C(C)=O)cc5)CC4)ccc3c2=O)cc1	-3
19	COc1ccc(CC(=O)OCC(=O)c2ccc[nH]2)cc1	2
20	Oc1c(Br)cc(Br)cc1/C=N/c1nccs1	1
21	Cc1ccc(S(=O)(=O)N2[C@@H](c3ccc(Cl)cc3)C(C(=O)O)=CC[C@H]2c2ccc(Cl)c(Cl)c2)cc1	-5
22	CC(=O)OC[C@]12CC[C@H]3[C@@](C)(CC[C@H]4C(C)(C)CCC[C@]34C)[C@@H]1C[C@H](C1=CC(=O)O[C@H]1OC(C)=O)O2	4
23	CC(=O)Nc1ccc(NC(=O)c2cccc(S(=O)(=O)N(C)C3CCCCC3)c2)cc1	-8
24	Cc1ccccc1C(=O)N1CCC(n2nccc2NC(=O)C2CC2)CC1	?
25	COc1ccc(NS(=O)(=O)c2ccc(N3CCOCC3)c(N)c2)cc1	15
26	O=S(=O)(c1ccc2nnn(O)c2c1)N1CCOCC1	-1
27	Cc1ccc(S(C)(=O)=O)cc1C(=O)OCC(=O)N(Cc1ccccc1)Cc1ccccc1	-2
28	Cn1c(=O)c2c(ncn2CC(=O)N2CCN(S(=O)(=O)c3ccc(F)cc3)CC2)n(C)c1=O	-2
29	CN(CC(=O)Nc1ccccc1C(F)(F)F)CC(=O)N1CCCCCC1	-7
30	Cc1ccc(C(=O)N2CCN(c3cccc(C)c3C)CC2)cc1S(=O)(=O)N1CCOCC1	1
31	COc1ccccc1C(=O)NCCC(=O)NC1CCCCCC1	-1
32	O=C(CN1C(=O)C2CC=CCC2C1=O)N1CCN(S(=O)(=O)c2ccccc2)CC1 (stereo not given)	0
33	Cc1noc(C)c1C(=O)OC(C)C(=O)Nc1ccc2c(c1)OCO2 (stereo not given)	5
34	COC(=O)[C@H](CC(C)C)N(Cc1ccccc1)S(=O)(=O)N(Cc1ccc(OC)cc1)[C@@H](CC(C)C)C(=O)OC	0
35	OC1CCCC1	0
36	CCc1ccccc1OCC(=O)Nc1ccc2c(c1)OCCO2	6
37	Cc1ccc(C)c(S(=O)(=O)N2CCN(c3nc(CN4CCOCC4)nc4sc(C)c(C)c34)CC2)c1	57
38	CC(C)NC[C@H](O)c1ccc(O)c(O)c1	2
39	CC1CCCCC1NC(=O)CN1c2cccc3cccc(c23)S1(=O)=O (stereo not given)	-5
40	COc1ccc(OCC(=O)OCC(=O)NC2CC2)cc1	-12
41	COC(=O)[C@]1(C)N[C@H](CN(C)C(=O)c2ccc(F)cc2)[C@@H]2C(=O)N(Cc3ccccc3)C(=O)[C@@H]21	-4
42	CCOc1ccc(NC(=O)CN2CCN(C(=O)c3ccco3)CC2)cc1S(=O)(=O)N1CCCC1	-3
43	C[C@@H](NC(=O)c1nc[nH]c1C(=O)NCc1ccccc1)c1ccccc1	20
44	COc1ccccc1NC(=O)COC(=O)C12CC3CC(CC(Br)(C3)C1)C2	5
45	COc1ccccc1-c1nn(Cc2ccccc2)cc1C(=O)N1CCN(c2ncccn2)CC1	4
46	COC(=O)c1cccc(-n2sc3ccccc3c2=O)c1	3
47	O=C(COC(=O)c1ccccc1Cl)NCc1ccco1	-7
48	CCOc1ccc(S(=O)(=O)N2CCCCC2)cc1NC(=O)CCc1ccc(OC)cc1	-2
49	O=C(CC1C[C@H](C(=O)N2CCCCC2)[C@@]2(CCc3ccccc3)c3[nH]c4ccccc4c3CCN2C1=O)NCc1ccco1 (stereo not given in full)	4
50	Cc1c(CCC(=O)N2CCC(C(=O)O)CC2)c(=O)oc2cc3oc4c(c3cc12)CCCC4	-3

# (continued)
cpd	Molecule	Mtb bLac sens
51	CCOc1ccc(CCNS(=O)(=O)c2c(C)nc3scc(C)n3c2=O)cc1OCC	9
52	Cc1cccc(Oc2ccccc2NC(=O)C2=COCCO2)c1	6
53	CC(C)C(NC(=O)c1ccc(Cl)cc1Cl)C(=O)N1CCN(S(=O)(=O)c2ccccc2)CC1 (stereo not given)	-10
54	CC(C)c1ccccc1OCCCCCN1CCOCC1	1
55	CCOc1ccc(NC(=O)CN(C)C(=O)c2ccccc2OCCOc2ccccc2)cc1OCC	0
56	Cc1ccc(CNc2ccc([N+](=O)[O-])cc2C(N)=O)cc1	49
57	COc1ccc(C(C)C)cc1S(=O)(=O)Nc1ncn[nH]1	1
58	COc1ccc(C(=O)COC(=O)c2sccc2C)cc1OC	-1
59	O=C(COC(=O)c1ccc2c(c1)OCO2)Nc1ccccc1Cl	3
60	CC(=O)N1CCN(C(=O)COC(=O)CNC(=O)c2ccc(C)cc2)CC1	3
61	CC(C)C(=O)Nc1ccc(N2CCOCC2)c(S(=O)(=O)Nc2ccccc2Cl)c1	2
62	O=C(Nc1cc(S(=O)(=O)Nc2ccc(Cl)cc2)ccc1O)c1ccc(F)cc1F	0
63	O=C(Nc1cccc(S(=O)(=O)NCc2ccco2)c1)c1ccc(Cl)cc1	-1
64	CC(NC(=O)CN1CCN(CC(=O)Nc2ccccc2Cl)CC1)c1ccc(Br)cc1 (stereo not given)	-4
65	CC[C@]12c3[nH]c4ccccc4c3CCN1C(=O)C(CC(=O)NCc1ccco1)C[C@@H]2C(=O)N1CCN(C(=O)C2CC2)CC1 (stereo not given in full)	-6
66	CN(C)C(CNC(=O)CSC(=S)N1CCCC1)c1ccccc1 (stereo not given)	-6
67	O=C1C=C(c2cccc(Br)c2)C[C@@H](c2ccc(F)cc2)C1	10
68	CC12CCC(=O)N1C(C(=O)NNC(=O)c1ccc(Br)cc1)CS2 (stereo not given)	-1
69	O=C(CSc1nnnn1-c1ccccc1)NCC1(N2CCCCC2)CCCCC1	-11
70	CC(Sc1nc2ncc(Cl)cc2[nH]1)C(=O)NC1(C#N)CCCCC1 (stereo not given)	4
71	COc1ccc(NC(=O)COc2ccccc2Cc2ccccc2)cn1	-10
72	Cc1cc(=O)oc2cc(NC(=O)Cc3ccccc3[N+](=O)[O-])ccc12	6
73	CC(C)CN1C(=O)C(=O)N(CC(=O)Nc2cccc(Cl)c2Cl)C1=O	0
74	COc1ccc(-c2c(-c3ccc(OC)c(F)c3)c3ccccc3n2C)cc1	-2
75	COc1ccc(C=NOCC(=O)OCC(=O)Nc2ccc(OC)cc2)cc1	6
76	CC(=O)N1CCN(C(=O)C2CCN(S(=O)(=O)c3ccccc3C(F)(F)F)CC2)CC1	-6
77	CC(C)(C)c1ccc(-c2nnc(SCC(=O)NCC3CCCO3)n2N)cc1 (stereo not given)	2
78	O=C(COC(=O)/C=C/c1cccc(Cl)c1)NC(=O)NCc1ccccc1	8
79	Cc1ccccc1OCC(=O)OCC(=O)NCc1ccc2c(c1)OCO2	1
80	COc1ccc(F)cc1S(=O)(=O)N1CCN(C(=O)c2ccco2)CC1	-4
81	C=CC[C@@H](Cc1ccc(F)cc1)C(=O)OC[C@H]1CCCN1C(=O)[C@H](CC=C)CC(=O)N[C@H](CO)Cc1ccccc1	-3
82	CCN(C(=O)CSc1nc(C)nc2sc(C)c(C)c12)C1CCS(=O)(=O)C1 (stereo not given)	3
83	Cc1ccccc1-c1cc(C(=O)NCc2ccc(OC(F)(F)F)cc2)nn1CC1CC(c2cccc([N+](=O)[O-])c2)=NO1 (stereo not given)	2
84	O=C(Cc1ccccc1)NCC(=O)N1CCC1	-13
85	COc1ccccc1CC(=O)N1CCN(c2ccccc2)CC1	4
86	CC1(c2ccc(OC(F)F)cc2)NC(=O)N(CC(=O)NCCC2=CCCCC2)C1=O (stereo not given)	-10
87	CC(=O)Nc1cccc(NC(=O)/C=C/c2ccc(S(=O)(=O)N3CCOCC3)cc2)c1	-6
88	COc1ccc(S(=O)(=O)N2CCN(C(=O)CSC(=S)N3CCCC3)CC2)cc1	-7
89	CCCc1cc(=O)[nH]c(SCC(=O)N2CCCCCC2)n1	-7
90	COC(=O)C1=C(C)N(Cc2ccccc2)C(=NCc2cc(OC)c(OC)c(OC)c2)N[C@H]1c1ccc(Br)cc1	70
91	CC(C)[C@H](NC(=O)c1ccccc1)C(=O)NC1CCCCCCC1	5
92	CC[C@@H](CCC=C(C)C)C(=O)N(Cc1ccccc1)c1ccccc1	6
93	CC(c1ccccc1)N1CC(C(=O)N2CCCC(C(N)=O)C2)CC1=O (stereo not given)	1
94	OC(c1nc2ccccc2[nH]1)C(O)c1nc2ccccc2[nH]1 (stereo not given)	-7
95	CCOC(=O)[C@H]1[C@H]2COc3ccc(Br)cc3[C@@H]2N2C(=O)CN(Cc3ccc(C)cc3)C(=O)[C@@]12C	-2
96	CSCCC(NS(=O)(=O)c1ccc(C)cc1)C(=O)NCC(C)(C)N1CCOCC1 (stereo not given)	2
97	N#Cc1cccc(NC(=O)COC(=O)c2ccc[n+]([O-])c2)c1	-4
98	C[C@H]1CN([C@@H](C)CO)C(=O)c2cccc(NS(=O)(=O)c3ccc(Cl)cc3)c2O[C@@H]1CN(C)CC1CCCCC1	-3
99	CC1(C(=O)Nc2cccc(-n3cnnn3)c2)Cc2ccccc2C(=O)O1 (stereo not given)	-6
100	CCN(C(=O)COC(=O)CCOc1ccccc1)c1c(N)n(Cc2ccccc2)c(=O)[nH]c1=O	-7
101	Cc1cc(C(=O)CN2CCN(CC(=O)Nc3cccc(F)c3)CC2)c(C)n1C1CC1	-14
102	COc1ccccc1N1CCN(C(=O)c2ccc3c(=O)n4c(nc3c2)CCCCC4)CC1	-5
103	CC1CCCCC1NC(=O)c1ccc(-n2cncn2)cc1 (stereo not given)	-5
104	O=C(c1ccc(-c2ccc([N+](=O)[O-])cc2)o1)N1CCCCCCC1	99
105	O=C1c2ccccc2NC(c2ccc(-c3ccccc3F)o2)N1O (stereo not given)	6
106	Cc1ccsc1C(=O)OCc1nnc(-c2ccccc2)o1	76

# Continued:
cpd	Molecule	Mtb bLac sens
107	COc1ccc(Cl)cc1NC(=O)CN(C)C(=O)C1CCN(C(=O)Nc2ccccc2)CC1	13
108	CC(C)(C)C(=O)O[C@H]1CC[C@@]2(C)C(=CC(=O)C3C2CC[C@]2(C)C(=O)[C@@H](F)CC32)C1 (stereo not given in full)	-3
109	Cc1ccccc1NC(=O)c1cc2ccccc2o1	2
110	O=C(CSc1ncnc2scc(-c3ccccc3)c12)NC1CCS(=O)(=O)C1 (stereo not given)	-12
111	Cc1noc(C)c1NC(=O)N(C)C[C@H]1Oc2c(NC(=O)c3ccncc3)cccc2C(=O)N([C@H](C)CO)C[C@@H]1C	-8
112	COc1ccc(/C=N/NC(=O)c2cc(C)oc2C)cc1OCc1ccccc1	0
113	O=C(Nc1ccc(N2CCOCC2)cc1)c1cccc2ccccc12	-8
114	Cn1c(SCC(=O)Nc2ccccc2Oc2ccccc2)nnc1C1CC1	4
115	CN(CC(=O)Nc1ccc(Cl)cc1)C(=O)CNC(=O)Cc1cccc2ccccc12	4
116	CN(C)S(=O)(=O)c1cccc(NC(=O)COc2ccc3ccccc3c2)c1	6
117	Cc1ccc(-n2c(-c3ccccc3)n[nH]c2=S)c(C)c1	3
118	O=C(CN1CCN(C(=O)c2ccc(OCc3cn4ccccc4n3)cc2)CC1)Nc1cccc(F)c1	-9
119	O=C(COC(=O)c1cc(Cl)nc(Cl)c1)NC1CCCCCC1	3
120	CSc1ccccc1NC(=O)CN(C)CC(=O)c1c(C)[nH]c2ccccc12	-6
121	Cc1ccc(NC(=O)c2ccc3c(c2)CCN3S(C)(=O)=O)c(C)c1	-9
122	Cc1cnc(C(=O)Nc2ccc(C)c(S(=O)(=O)N3CCCCC3)c2)cn1	2

# This is a subset. The share of hits here may be higher or lower than overall.
